High-throughput results (PubChem)
FGF22 binding: binders of recombinant human FGF22 by thermal shift. AID 651658. 340,000 tested, 1.5% active. calls only at 9.99 µM. SYPRO orange fluorescence; percent of sucrose octasulfate shift, DMSO zero;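 active means melting point raised past a set limit in the mean and every replicate; inconclusive means no clear call; three in four hits are not shown here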
Target sequence (Q9HCT0 whole entry, looked up): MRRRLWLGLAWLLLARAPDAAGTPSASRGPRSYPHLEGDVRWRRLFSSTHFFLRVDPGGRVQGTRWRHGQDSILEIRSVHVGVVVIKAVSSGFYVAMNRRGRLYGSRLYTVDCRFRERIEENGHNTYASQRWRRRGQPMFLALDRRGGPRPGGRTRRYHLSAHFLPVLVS
Calb FLC: affects C. albicans growth with fluconazole; C. albicans CaCi-2 (fluconazole-resistant clinical isolate) + fluconazole, Alamar Blue growth, 48 h; growth inhibition, % (concentration not given with the values); 300,000 tested, 0.57% active; AID 1979;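 active means most replicates above 75%; inconclusive means exactly half above 75%; inactive means most below 75%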;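 further: all wells also contain fluconazole at 8 µg/ml as a sub-toxic cotreatment; 0% = median of DMSO wells and 100% = median of geldanamycin control wells; wells of about 8 µL received 7.5 nL stock; the first replicate is given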
ALR H2O2 inh: human ALR oxidase inhibition via reduced H2O2 | P55789 | AID 485317 | inhibition, % (no concentration beside the values) | 290,000 tested, 3.8% active | purified ALR, DTT oxidation, H2O2 HRP-luminol luminescence;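 active means mean and each replicate at 75% or more; inconclusive means only one of the two met; inactive means neither met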;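 further: stock transfer was 7.5 nL into about 7.5 µL; 0% = neutral wells and 100% = wells with inactivated enzyme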
Target sequence (P55789 whole entry, looked up): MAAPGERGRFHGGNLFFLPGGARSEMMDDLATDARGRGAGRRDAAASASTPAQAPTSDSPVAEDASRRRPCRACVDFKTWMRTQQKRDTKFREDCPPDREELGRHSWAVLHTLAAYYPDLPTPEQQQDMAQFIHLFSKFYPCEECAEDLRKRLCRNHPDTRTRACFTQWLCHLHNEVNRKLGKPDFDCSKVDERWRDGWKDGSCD
Beta cell apopt: beta cell apoptosis inhibition; INS-1E cytokine-induced death, ATP luminescence, 48 h; percent of positive-control rescue, neutral wells zero; protection from apoptosis, % (no concentration beside the values); 300,000 tested, 0.8% active;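 active means all replicates at 75% or more, or half of them and the mean; inconclusive means half reach 75% but not the mean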;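 further: 0% = cytokine-treated negative control wells and 100% = positive control rescue; higher means more ATP so stronger rescue from cytokine killing; wells of about 40 µL received 100 nL stock; the first replicate is given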
RanGTP-Imp inh: inhibitors of RanGTP-importin-beta interaction, primary screen, biochemical, FRET, CFP-Ran, YFP-importin-beta, homogeneous | inhibition, % (test concentration not listed) | 300,000 tested, 1.1% active | AID 2216 | cell-free CFP-Ran/YFP-importin-beta FRET ratio;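 active means most replicates above 15%; inconclusive means exactly half above 15%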;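 further: 0% = DMSO wells and 100% = Ran loaded with GDP instead of GTP; wells of about 40 µL received 100 nL stock; the first replicate is given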
rRNA inh HTS: inhibits bacterial ribosomal RNA function over humanized ribosomes. E. coli WT GFP vs humanized-ribosome RFP mutants, fluorescence, 24 h; stronger effect = lower value; DMSO median 0, no signal -100. GFP signal change (wild-type ribosome), % (test concentration not listed). 350,000 tested, 1.6% active;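 active means significant combined selectivity score with lowered wild-type GFP, culture density cut under 30%, mutant RFP and density less affected; inactive means any of these conditions unmet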; further: one replicate is shown; some compounds called inactive have numbers as strong as hits
T cruzi inh: blocks replication of Trypanosoma cruzi; T. cruzi beta-gal in NIH3T3, luminescence, 90 h; inhibition, % (no concentration beside the values); 300,000 tested, 1.4% active; AID 1885;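 active means mean inhibition across valid replicates above about 55%, limit read from the data; inconclusive means mean below that limit but half or more replicates reach it; inactive means mean below it, under half of replicates reach it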;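 further: signal also drops with host cell toxicity which is not excluded here; 0% = plate median of DMSO wells and 100% = zero luminescence signal; higher percent means less beta-gal luminescence so fewer parasites; stock transfer was 50 nL into about 50 µL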
MLL AF4-AF9 inh: blocks AF4 peptide binding to human AF9; P42568; AlphaScreen, biotin-AF4 peptide binding to FLAG-AF9; 350,000 tested, 0.47% active; inhibition, % at 10 µM; AID 651704;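 active means every replicate reaching a set inhibition limit, whatever the replicate mean, cut at about 25% in these data; inconclusive means mean inhibition reaches that limit but some replicates miss it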;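 further: 0% = plate neutral control median and 100% = total signal loss; the record names both 10 and 1 µM as test concentration; the first replicate is given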
Target sequence (P42568 whole entry, looked up): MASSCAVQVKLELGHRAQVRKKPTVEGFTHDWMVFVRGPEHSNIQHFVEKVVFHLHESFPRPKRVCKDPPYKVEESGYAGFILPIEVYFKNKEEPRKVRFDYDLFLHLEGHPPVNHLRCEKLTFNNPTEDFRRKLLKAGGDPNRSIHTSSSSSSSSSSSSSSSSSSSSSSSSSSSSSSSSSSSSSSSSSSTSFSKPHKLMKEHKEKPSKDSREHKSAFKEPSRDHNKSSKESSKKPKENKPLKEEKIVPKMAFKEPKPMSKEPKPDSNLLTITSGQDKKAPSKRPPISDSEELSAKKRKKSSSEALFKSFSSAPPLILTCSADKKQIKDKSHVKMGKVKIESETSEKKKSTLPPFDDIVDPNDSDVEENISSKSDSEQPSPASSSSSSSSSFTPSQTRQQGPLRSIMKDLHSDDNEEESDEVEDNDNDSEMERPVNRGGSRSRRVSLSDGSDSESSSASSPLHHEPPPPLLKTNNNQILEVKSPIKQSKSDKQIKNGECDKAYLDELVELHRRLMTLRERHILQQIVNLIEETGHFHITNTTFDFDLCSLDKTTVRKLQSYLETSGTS
rRNA inh HTS OD600: further read-out of rRNA inh HTS, marked with its call; OD600 change, %; measured here: OD600 growth;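 optical density of the mix in the first replicate; 0 = DMSO median and -100 = no signal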
rRNA inh HTS RFP: further read-out of rRNA inh HTS, marked with its call; RFP signal change, %; measured here: RFP humanized mutant strains;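 first replicate; 0 = DMSO median and -100 = no signal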
* hit, by the source's call; i = inactive; ? = inconclusive; nt = no result given; & = joins results of further samples. The list is partial, so the mix of outcomes need not match the whole.

No.	molecule	FGF22 binding	Calb FLC	ALR H2O2 inh	Beta cell apopt	RanGTP-Imp inh	rRNA inh HTS	rRNA inh HTS OD600	rRNA inh HTS RFP	T cruzi inh	MLL AF4-AF9 inh
1	Cc1cccc(NC(=O)c2cccc(NC(=O)Cc3cccs3)c2)c1	i	25	-3	9	4.2	-37	-34	-2.8	-4	1.0
2	CCOc1ccc(C(O)(c2ccccc2)C(CN2CCCC2)c2ccccc2)cc1 (stereo not drawn)	i	-1	7	0	1.4	12	2	1.9	36	-0.5
3	Cc1nn(Cc2ccccc2)c(C)c1CNC(=O)c1ccc(F)c(S(=O)(=O)N2CCOCC2)c1	i	nt	-1	0	nt	-3	1	-0.3	nt	-0.9
4	COc1cc(C(=O)COC(=O)C2CCCCC2)cc(OC)c1OC	i	nt	0	-3	nt	-9	-10	3.6	nt	-5.4
5	O=[N+]([O-])c1ccc(S(=O)(=O)NCCS(=O)(=O)N2CCN(c3ccccc3)CC2)cc1	i	-3	2	1	3.1	-10	3	-2.9	56*	1.5
6	O=C(N/N=C/c1c[nH]c2ccccc12)c1cc(Br)ccc1O	i	13	22	nt	0.5	-11	1	-4.6	-9	2.2
7	CSCCC(NC(=O)c1ccccc1C)C(=O)O (stereo not drawn)	i	-1	3	-6	0.5	12	10	2.3	-24	-0.8
8	CN(C[C@H](Cc1ccccc1)N(C[C@H](CC1CCCCC1)N(CCc1ccccc1)N=O)N=O)N=O	i	-13	-6	15	-5.3	11	19	0.6	-3	-1.9
9	Cc1cc(=O)oc2cc(OCC(=O)OCC(=O)N3CCC(C)CC3)ccc12	i	-3	-6	4	0.8	9	7	-8.8	-5	-2.0
10	COc1ccccc1/C=C1\SC(=O)N(CCC(=O)NNC(=O)c2ccccc2Cl)C1=O	nt	-5	-1	6	-1.2	nt	nt	nt	4	nt
11	CC(C)(C)OC(=O)N1Cc2ccccc2C[C@H]1C(=O)NCC(=O)Nc1ccc2c(c1)OCCO2	i	4	-29	4	1.5	20	7	8.6	-5	1.6
12	CCCCNc1c(-c2ccc(OC)c(SC3CCCCC3)c2)nc2cnccn12	nt	39	13	21	3.7	nt	nt	nt	32	nt
13	Cc1nn(C)c(C)c1C(C)NC(=O)c1cc(COc2cncc(Cl)c2)on1 (stereo not drawn)	i	-12	-5	-1	-0.6	4	6	-2.2	12	-0.3
14	C=C(C(=O)c1ccccc1)C(c1ccccc1)C(C)C(=O)c1ccccc1 (stereo not drawn)	nt	-3	-9	nt	2.6	nt	nt	nt	49	nt
15	CN(Cc1ccccc1)C(=O)COC(=O)c1ccc(S(=O)(=O)N(C)C)cc1	i	15	-3	nt	-0.3	4	-7	-1.2	3	-0.3
16	CCCCC1(c2ccc(F)cc2)NC(=O)N(CC(=O)Nc2ccc(N3CCOCC3)cc2)C1=O (stereo not drawn)	i	nt	5	3	nt	9	-11	13	nt	6.5
17	O=C(c1ccc2nc3ccccc3c(=O)n2c1)N1CCN(Cc2ccc3c(c2)OCO3)CC1	nt	-13	-45	8	0.9	nt	nt	nt	31	nt
18	CN(Cc1ccccc1)C(=O)COC(=O)c1ccccc1NS(=O)(=O)c1cccc(N)c1	i	10	nt	-9	7.7	0	2	-0.1	4	1.5
19	CC1=Nc2cc(Cl)ccc2Oc2ccccc21	i	?	-1	nt	-4.3	-17	-15	29	-2	-0.2
20	Cc1cc(C(=O)OCC(=O)Nc2ccc(F)cc2[N+](=O)[O-])c2ccccc2n1	i	16	-13	3	2.3	13	12	2.2	3	-1.3
21	COc1ccc(C(=O)Nc2ncc(C)s2)cc1S(=O)(=O)N1CCOCC1	i	nt	0	-3	nt	-7	-7	-0.3	nt	0.9
22	COc1ccc2c3c([nH]c2c1)C1(NCC3)C(=O)Nc2ccccc21 (stereo not drawn)	i	24	42	-10	4.2	-4	-5	5.2	1	-9.6
23	COc1ccc(S(=O)(=O)N2CCCOC2CNC(=O)C(=O)NCCc2ccco2)cc1OC (stereo not drawn)	i	-4	-4	-2	1.1	2	5	-0.8	-4	4.0
24	COc1cc(/C=N/O)cc(Br)c1OCC(=O)NCc1ccccc1	nt	21	-1	-7	-0.3	nt	nt	nt	-10	nt
25	COc1cccc(CNc2ncc(Br)cc2Br)c1O	nt	23	17	4	9.7	nt	nt	nt	-18	nt
26	Cc1ccc(C(=O)N2CCN(Cc3ccc4c(c3)OCO4)CC2)cc1S(=O)(=O)N1CCOCC1	i	-9	-7	-5	0.3	0	-7	-3.0	11	-1.0
27	O=C(CN1CCN(c2ccc(F)cc2)CC1)N1CCOCC1	nt	-1	88*	1	1.6	nt	nt	nt	2	nt
28	S=c1[nH]nc(C2(c3ccccc3)CCCC2)o1	i	2	26	-8	-3.9	-4	0	9.5	11	1.0
29	COc1cc(NC(=O)C/C(C)=N/NC(=O)C(OC)c2ccccc2)c(OC)cc1Cl (stereo not drawn)	nt	14	nt	2	?	nt	nt	nt	-21	nt
30	CSc1ccc(Cl)c(C(=O)OCC(=O)NCc2ccco2)c1	nt	0	72	-5	6.2	nt	nt	nt	-9	nt
31	COc1cc(OC)c(C2=NOC(C(=O)N3CCCc4ccccc43)C2)cc1Cl (stereo not drawn)	nt	-1	-3	-2	-1.8	nt	nt	nt	14	nt
32	CC1=C(C(=O)OC2CCCCCC2)C(c2ccc(C)o2)C2=C(CCCC2=O)N1 (stereo not drawn)	i	-7	nt	-1	2.1	-3	-8	0.4	4	1.7
33	CCCOc1ccccc1/C=N/Nc1ccnc(=O)[nH]1	i	0	-4	1	-1.5	16	9	4.6	-6	-1.0
34	O=C(c1ccccc1NS(=O)(=O)c1ccccc1[N+](=O)[O-])N1CCCC1	i	-1	-11	nt	1.1	7	4	3.0	-7	-2.3
35	O=C(CSCc1c(Cl)cccc1Cl)NCC1CCCO1 (stereo not drawn)	nt	19	-26	0	3.3	nt	nt	nt	-1	nt
36	CC1(C)C2CCC(C2)C1(C)NC(=O)CNCc1cccs1 (stereo not drawn)	i	0	-9	1	?	-23	-27	-2.3	-7	-2.5
37	Cc1ccc(Cl)c(Nc2ccccc2C(=O)O)c1Cl	i	nt	nt	nt	-0.1	nt	nt	nt	11	-4.2&-4.1&-1.7
38	CCN1CCN(Cc2ccc(NC(=O)c3cc(NC(=O)c4cnnc5ccccc45)cc(OC)c3)cc2C(F)(F)F)CC1	i	5	-10	10	1.9	-28&-10	-39&-37	-4.1&23	19	23&9.0
39	O=C(CCCN1C(=O)/C(=C/c2cccs2)SC1=S)Nc1ccccc1O	i	-13	nt	-4	-4.4	-5	3	6.1	-3	-2.9
40	COc1cc(/C=C(\C#N)c2ccccn2)ccc1OCc1ccc(Cl)cc1	nt	1	-1	4	-4.6	nt	nt	nt	19	nt
41	CCOCCCNC(=O)Cn1cc2c(n1)CCCC2	i	-3	-16	-10	0.5	11	8	1.0	1	-5.2
42	CCN(CC)c1ccc(NC(=O)C2=CC=CN3CCS(=O)(=O)N=C23)cc1	i	nt	99*	5	nt	2	4	-1.6	nt	6.9
43	CCN(CC)c1nc(N)nc(NS(=O)(=O)c2ccc(Cl)cc2)n1	nt	-7	2	3	-0.1	nt	nt	nt	0	nt
44	CCCCNC(=O)C(CC)(ONc1ccccc1C(F)(F)F)c1ccccc1 (stereo not drawn)	i	nt	-26	-13	nt	6	10	-7.4	nt	5.9
45	Cc1cccc2nc(C(=O)Nc3cc(Cl)ccc3-n3cncn3)cn12	i	nt	1	5	nt	-1	6	-3.9	nt	-2.7
46	Cc1ccc(C)c(NC(=O)CCC(=O)NNC(=S)Nc2ccccc2)c1	i	-4	48	nt	-2.4	2	2	2.1	-6	-2.3
47	COc1ccccc1-n1cc(CN2CCN(C3CCCC3)C(CCO)C2)cn1 (stereo not drawn)	nt	-25	-1	-5	-1.7	18	13	-1.3	6	-0.8
48	CN(NC(=O)c1ccc(Cl)cc1)c1nc(-c2ccccc2)nnc1C(F)(F)F	nt	2	-5	5	4.9	nt	nt	nt	-21	nt
49	NC(=O)c1ccsc1NC(=O)CSc1ccccc1F	nt	-8	14	-13	2.8	-16	-4	-4.0	-7	-1.5
50	COc1ccc(O)c(C(c2c(C)[nH][nH]c2=O)c2c(C)[nH][nH]c2=O)c1	i	-4	-10	-6	-2.7	21	18	-0.7	-4	-0.7
51	COc1ccc(S(=O)(=O)NC2CC(=O)N(c3cccc(F)c3)C2)cc1OC (stereo not drawn)	i	4	nt	-5	1.4	-19	-16	-2.8	4	-2.9
52	CCOCCCNC(=S)Nc1ccc(Br)cc1Cl	i	-3	nt	-5	3.0	-5	-6	-1.6	1	1.9
53	CSCCC(NC(=O)c1ccccc1)C(=O)N/N=C(\C)Cc1ccccc1 (stereo not drawn)	i	-6	7	5	nt	5	7	-2.3	nt	-0.7
54	Cc1nc(NCC2CCCO2)nc2c1C(=O)CC(C)C2 (stereo not drawn)	nt	-2	1	-11	?	nt	nt	nt	-2	nt
55	Cc1nc(SCc2ccc(F)cc2)c([N+](=O)[O-])[nH]1	i	-10	1	-1	1.3	-7	0	-2.7	-12	-6.2
56	Cn1c2ccc(Br)cc2c2nnc(SCC(=O)O)nc21	i	34	13	10	2.8	-2	-2	-3.6	21	-5.2
57	Nn1cc(-c2ccccc2)nc1SCC(=O)N1CCN(S(=O)(=O)c2ccc(Cl)cc2)CC1	nt	9	-9	-3	-3.0	nt	nt	nt	-1	nt
58	O=C(CCN1CCCCC1)N=Nc1c(O)[nH]c2ccccc12	i	27	?	nt	4.1	13	5	2.1	18	0.5
59	O=c1c(-c2cc3ccccc3o2)[n+]([O-])c2ccccc2n1OCc1ccccn1	nt	11	6	5	4.8	nt	nt	nt	12	nt
60	CCC(=O)Nc1ccc(S(=O)(=O)NCCc2ccccc2)cc1	nt	-21	-19	-7	1.0	nt	nt	nt	0	nt

Next records.
No.	molecule	FGF22 binding	Calb FLC	ALR H2O2 inh	Beta cell apopt	RanGTP-Imp inh	rRNA inh HTS	rRNA inh HTS OD600	rRNA inh HTS RFP	T cruzi inh	MLL AF4-AF9 inh
61	CC1CCCCN1S(=O)(=O)c1ccc(C(=O)Nc2nnc(-c3cccs3)o2)cc1 (stereo not drawn)	nt	95*	10	5	0.3	nt	nt	nt	43	nt
62	CCC(C)(C)c1ccc(Oc2ccc(NC(=O)COC(=O)C3=COCCO3)cc2)cc1	nt	-12	10	37	2.3	nt	nt	nt	-22	nt
63	O=C(NC1CCS(=O)(=O)C1)c1cccc(Cl)c1 (stereo not drawn)	i	0	3	-2	0.2	1	1	-3.0	-6	0.0
64	O=C(Nc1ccc(Cl)cc1Cl)C1CCC(=O)N1Cc1ccccc1Cl (stereo not drawn)	nt	-7	4	6	3.2	nt	nt	nt	-13	nt
65	Clc1ccc(CSc2nnc3ccccn23)c(Cl)c1	nt	-2	-6	-4	?	nt	nt	nt	-14	nt
66	CCOC(=O)c1sc(NC(=O)CSc2nnnn2-c2ccccc2)nc1C	i	-5	0	-6	1.3	-28	-11	12	-23	-4.0
67	CC(=O)N/C(=C\c1cccc([N+](=O)[O-])c1)C(=O)NC1CCCCC1	i	1	-4	-3	3.9	10	21	1.2	-6	-9.1
